# CDC25B CDK2 inh – primary biochemical HTRF screen for blockers of M-phase inducer phosphatase 2 binding to CDK2/cyclin A; P30305+P24941; AID 1259370, 2018; 94,000 tested, 0.72% active; z-score (test concentration not listed); HTRF CDC25B-CDK2/CyclinA binding, anti-His/anti-Flag; stronger effect = higher value;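 note: score is relative to mean and SD of negative controls; strong numbers were not always called active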
# HIV TAR-Tat – TAR RNA-Tat peptide displacers, HIV-1, primary screen, biochemical, FRET, FAM/TAMRA-labeled Tat; HIV-1 TAR RNA, Tat peptide displacement FRET; stronger effect = higher value; z-score (concentration not given with the values); 100,000 tested, 0.6% active; AID 1259389, 2018;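 note: score is relative to mean and SD of negative controls; some compounds called inactive have numbers as strong as hits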
# Numbers without * were called inactive; . = not tested or not shown.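 Rule for the calls: active = z-score from 3 up in half or more of its runs; inactive = the rest.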
SMILES,CDC25B CDK2 inh,HIV TAR-Tat
O=C(Nc1ncc(Cc2ccc(F)cc2)s1)c1cc2ccccc2c(=O)o1,-0.68,-0.97
Cc1cc2c(c(SCc3ccccc3Cl)n1)C(=O)OC2,-0.07,.
Cc1c(N2CCCC2)cc2c(c1N)C(C)(C)CC2(C)C,-1.52,.
CC12CN3CC(C)(CN(C1)C3c1cn(Cc3ccccc3)c3ccccc13)C2O (configuration not stated),-0.53,.
Cc1cc(C)cc(-n2ccnc(SCc3ccc(Cl)cc3)c2=O)c1,.,0.91
CCN(CC)C(=O)CN1c2ccccc2S(=O)(=O)c2ccccc21,.,1.25
Cc1ccc(-c2c3c(=O)n(C)c(=O)n(C)c3c3n2-c2ccccc2NC3c2ccco2)cc1 (configuration not stated),-1.58,2.77
COc1ccc(N2C(=O)CC(Sc3nc(CC(C)C)ccc3C#N)C2=O)cc1 (configuration not stated),-1.58,1.89
Cc1cc(C)c2c(=O)c3c(oc2c1)C(=O)N(CCCOC(C)C)C3c1ccccc1F (configuration not stated),0.13,-0.55
CCCCN(C)C(=O)CCS(=O)(=O)c1cc2c(cc1Cl)NC(=O)CO2,.,1.97
O=c1[nH]nc(SCc2cccc3ccccc23)c(=O)[nH]1,-0.76,1.61
O=C(CSCCOc1ccccc1)NCc1cccs1,-0.66,.
COCC(=O)Nc1ccc2nc(NS(C)(=O)=O)sc2c1,.,-0.63
COc1cc(C2CC(=O)N3CN(c4ccc(C)c(C)c4)CSC3=C2C#N)ccc1O (configuration not stated),0.52,1.62
Cc1ccc(CNc2c(-c3ccc4c(c3)CCCC4)c(=O)c2=O)cc1,.,2.36
O=C(Nc1ccc([N+](=O)[O-])o1)O/N=C/c1ccc([N+](=O)[O-])s1,1.58,.
NC(=O)c1c(NC(=O)COc2ccc(Cl)cc2)sc2c1CCC2,-14.6,2.54
O=C(Cc1cccs1)Nc1noc2ccccc12,-0.49,1.16
NC(=O)Cn1c(CSc2nc3ccccc3n2Cc2ccccc2)nc2ccccc21,4.29,1.92
O=C(O)CSCC(=O)NCc1csc2ccccc12,-2.82,.
CCc1ccc2c(Cl)c(C(=O)O)sc2c1,.,1.36
Clc1cccc(CNc2nc(-c3ccccc3)no2)c1,.,-0.04
CC(C)(C)c1ccc(-c2nnc(SCC(=O)N3CCOCC3)n2-c2ccc3c(c2)OCO3)cc1,0.38,.
COc1ccc2oc(-c3ccc(C)c(N)c3)nc2c1,-0.89,0.16
Cc1nnc2c(NCCc3ccccc3)nc3ccccc3n12,0.37,1.94
COc1ccc(C2CC(=O)C3=C(C2)NC(=O)CC3c2cccc(F)c2F)cc1OC (configuration not stated),-2.44,2.5
Cc1ccc(-n2nnc(S(=O)(=O)c3ccc(C)cc3)c2N)cc1,-0.68,1.69
CN1C(=O)C(Cc2ccc(O)cc2)NC1=S (configuration not stated),-2.31,.
CCOC(=O)c1c(NC(=O)CSC2=NN3CCCC(=O)N=C3S2)sc2c1CCC2,0.18,.
CCCCn1c(CCCO)nc2ccccc21,0.32,0.52
CCn1c(C(=O)N2CCCCC2)cc2sccc21,-0.1,-1.1
CCOCCCNC(=O)c1c(O)nc2c(C)cccn2c1=O,-1.85,0.38
COc1ccccc1NC(=O)CSc1nnc2c(n1)[nH]c1ccccc12,0.41,-0.4
Nc1nc(-c2ccc(F)cc2)nn1C(=O)Cc1ccc(Cl)cc1,-1.11,0.05
CCc1nnc(NC2=NS(=O)(=O)C(c3ccc(F)cc3)=C2C)s1,.,1.47
Clc1ccc(-c2noc(-c3cccnc3NCc3ccco3)n2)cc1,-0.07,0.17
CCNc1ncnc2onc(-c3ccccc3C)c12,.,-1.87
O=C(c1ccco1)N1CCN(C(=O)C2CCC(Cn3c(=O)[nH]c4ccsc4c3=O)CC2)CC1 (configuration not stated),.,-0.38
CCOCCCNC(=O)c1c(NC(=O)c2cc(=O)c3cc(C)cc(C)c3o2)sc2c1CCCC2,-2.29,2.43
COC(=O)C1C(=O)CC(C)(O)C(C(=O)OC)C1c1ccc(O)c(OC)c1 (configuration not stated),-1.46,4.45
CCOC(=O)C1=C(C)NC2=C(C(=O)c3ccccc32)C1c1ccc(OC)c(OC)c1 (configuration not stated),-2.9,-3.17
O=c1c2[nH]c3ccc(Cl)cc3c2ncn1CCN1CCN(Cc2ccccc2)CC1,-1.58,-0.09
O=C(c1ccc(-c2ccc(S(=O)(=O)N3CCCC3)s2)cc1)N1CCC(N2CCCCC2)CC1,.,1.28
COc1ccc(-c2[nH]nc3nc(-c4ccc(C(=O)O)cc4)cc(C(=O)O)c23)cc1,.,3.17
C=CCNc1ncnc2c1sc1nc3c(cc12)COC(C)(C)C3,-1.16,.
COc1ccc(-c2nc3n(n2)C(c2ccc4c(c2)OCO4)C2=C(CC(C)(C)CC2=O)N3)cc1 (configuration not stated),-2.12,.
O=C(NCCN1CCOCC1)c1cccc2c1OCCCO2,-1.55,.
O=C(CCCCn1c(=O)[nH]c2ccsc2c1=O)N1CCN(c2ccccn2)CC1,0.12,0.65
O=C(Nc1cc(F)ccc1F)c1cc2cc3ccc(Cl)cc3nc2o1,.,-0.79
COc1ccc(Nc2c(-c3cc(Br)ccc3O)nc3ncccn23)cc1OC,-0.43,0.91
# The results go on.
SMILES,CDC25B CDK2 inh,HIV TAR-Tat
CCOC(=O)C1CCN(C(=O)CN2CCCn3nc(C)cc32)CC1,.,0.03
COc1cc2c(cc1OC)C(c1ccccc1)NCC2 (configuration not stated),-0.52,1.95
CCc1ccc(Oc2coc3cc(OC(=O)c4cccs4)ccc3c2=O)cc1,-0.62,-0.57
COC(=O)c1cc(-c2ccc(C)cc2)c2c(=O)n(C)c(=O)n(C)c2n1,-4.26,1.06
Clc1ccc(-n2ncc3c(N4CCCC4)ncnc32)cc1,.,0.83
O=C(Oc1ccc(F)cc1)c1cc(-c2ccc3c(c2)OCCO3)on1,-3.93,1.6
Cc1ccccc1CSc1nc2c(c(=O)[nH]1)CCC2,0.24,2.7
CC(C)c1ccc(CNc2n[nH]c(-c3ccco3)n2)cc1,-2.79,2.3
CCC(c1ccccc1)c1nnc(N)s1 (configuration not stated),-1.66,1
O=C(c1cc(-c2cccs2)[nH]n1)N1CCN(C(=O)C2CCCCC2)CC1,.,-0.71
CCOCCCNC(=O)Nc1c[nH]c(=O)[nH]c1=O,.,1.79
COc1cccc2c1c(NS(=O)(=O)c1cc(Cl)sc1Cl)nn2C,-1.06,.
CN1CCN(CCCNC(=O)c2ccc(CS(=O)(=O)c3ccc(Br)cc3)o2)CC1,-0.52,-1.36
Cn1cnc2cccc(F)c2c1=N,-2.07,.
COC(=O)c1c(NC(=O)c2cc(=O)c3ccc(C)cc3o2)sc2c1CCC2,0.9,-0.94
CCCC1c2ccc(C)n2CCN1C(=O)Nc1ccccc1Cl (configuration not stated),0.21,-0.43
O=C(c1ccco1)c1cn(CC(=O)N2CCc3ccccc3C2)c2ccccc12,-1.68,0.65
Cc1csc(NC(=O)CSc2nccn2C)n1,-2.06,0.27
O=C(CCS(=O)(=O)c1cc2c3c(c1)CCN3C(=O)CC2)Nc1ccc(F)c(Cl)c1,.,1.35
O=C(NCc1ccncc1)c1cc2n(n1)C(C(F)(F)F)CC(c1ccco1)N2 (configuration not stated),1.02,-5.75
COc1ccc(OC(=O)c2cc3ccccc3o2)cc1,0.33,-0.74
COc1ccc(Nc2ncnc3c2nc2n3CCCCC2)cc1,.,-0.04
O=C1CCCN2N=C(SCc3ccccc3F)SC2=N1,-2.64,.
CC(=O)Oc1ccc2c(c1)C(=O)c1cc(OC(C)=O)ccc1-2,-0.78,1.48
NC(=O)C1CCN(C(=O)CSc2nnc(N)s2)CC1,3.84,.
C=CCn1c(-c2cccc(Cl)c2)n[nH]c1=S,-1.02,.
CCOC(=O)CC1=CSC2=NCCN12,-1.27,.
CCS(=O)(=O)N1CCc2cc(C(N)=O)ccc21,-3.01,1.54
CC1=C(C(=O)OCC2CCCO2)C(c2cccc(Br)c2)C2=C(CC(C)(C)CC2=O)N1 (configuration not stated),-1.19,1.41
CCc1cc2c3c([nH]c2cc1S(=O)(=O)Nc1cccc(F)c1)CC(C)(C)CC3=O,.,-0.06
CCC(C(=O)NCCC(C)C)n1c2ccccc2c2nc(=O)cc(C)n21 (configuration not stated),0.62,-0.09
Cc1ccc(-c2c(N3CCC(N4CCCCC4)CC3)c(=O)c2=O)cc1C,.,1.8
C=CCOC(=O)C1=C(C)NC2=C(C(=O)CC(C)(C)C2)C1c1ccc(CC)cc1 (configuration not stated),-1.21,1.73
Cc1cc(N2CCN(c3ccccn3)CC2)n2nnnc2n1,-1.09,-0.37
Cc1ncc(-c2ccc(S(=O)(=O)NCCC3=CCCCC3)cc2)o1,.,1.25
CCc1nn(CC(=O)N2CCN(c3ccccn3)CC2)c(=O)c2cc3sccc3n12,1.05,0.53
CC(C)CNC(=O)Nc1ccc2sc(NS(=O)(=O)c3ccccc3)nc2c1,.,1.74
O=C(NCc1ccc(F)cc1)c1cc2c(s1)CSC2,.,1.38
Cc1cc2c3c([nH]c2cc1S(=O)(=O)Nc1ccccc1)CCCC3=O,.,-1.3
CS/C(=C/C(=O)c1cccs1)Nc1ccccc1Cl,-0.79,.
COc1ccc(-c2cn(-c3ccc(C)c(F)c3)c(=O)[nH]2)cc1OC,-1.22,13.4
O=C(O)c1ccccc1SC(C[N+](=O)[O-])c1ccco1 (configuration not stated),-2.05,.
CCN(CC)c1cc2c(cc1F)c(=O)c(S(=O)(=O)c1cc(C)cc(C)c1)cn2CC,.,0.86
Cc1nc(NCc2ccc3c(c2)OCO3)ncc1C(=O)O,-1.68,-2.09
CCCCn1cc(NC(=O)C2=CC(c3ccc(C)cc3)=NS(=O)(=O)N2C)cn1,-0.05,2.3
Clc1ccc(CCNc2ncnc3c2nc2n3CCCCC2)cc1,.,1.21
CCOc1ccc(NS(=O)(=O)c2cc(-c3cnc(C)o3)ccc2C)cc1,.,1.24
COC(=O)c1c(SCc2ccccc2)[nH]c2cc(Cl)ccc2c1=O,.,-0.86
CCOc1ccc(S(=O)(=O)[C@H]2CS(=O)(=O)C[C@@H]2NCc2ccc(F)cc2)cc1,-1.5,-0.45
Cn1c(CN2CCOCC2)nc2ccccc21,-1.43,0.13
# Continued.
SMILES,CDC25B CDK2 inh,HIV TAR-Tat
Cc1cc(Cl)ccc1OCc1cc(=O)n2nc(-c3ccco3)sc2n1,1.45,13.1*
NNC(=O)c1[nH]ncc1-c1ccc(Cl)cc1Cl,-2.18,.
Cn1cnc(S(=O)(=O)N(Cc2ccccc2)Cc2cccs2)c1,0.29,.
CCCN1CCN(C(=O)C(C)n2nc(C)c3sc4ccccc4c3c2=O)CC1 (configuration not stated),-0.58,1.62
Cc1cc(C)c2c(CC(=O)N(Cc3ccc(Cl)cc3)C3CCS(=O)(=O)C3)coc2c1 (configuration not stated),-2.95,0.72
C=C(C)Cn1c(-c2ccco2)nc2ccccc21,-0.06,-0.63
CC1(C)Cc2c(c(N3CCOCC3)nc3sc(C(N)=O)c(N)c23)CO1,1.91,2.35
CCCCn1c(C2CC(=O)N(c3ccccc3)C2)nc2ccccc21 (configuration not stated),-1.24,1.58
NC(=O)CSc1nc(-c2ccccc2)nc2c1Cc1cc(Cl)ccc1O2,-1.13,-0.05
N#Cc1nc(/C=C/c2cccs2)oc1N1CCOCC1,-2.51,0.23

# A portion from the list above, as a working copy:
SMILES,CDC25B CDK2 inh,HIV TAR-Tat
CCOc1ccc(NS(=O)(=O)c2cc(-c3cnc(C)o3)ccc2C)cc1,.,1.24
COC(=O)c1c(SCc2ccccc2)[nH]c2cc(Cl)ccc2c1=O,.,-0.86
CCOc1ccc(S(=O)(=O)[C@H]2CS(=O)(=O)C[C@@H]2NCc2ccc(F)cc2)cc1,-1.5,-0.45
Cn1c(CN2CCOCC2)nc2ccccc21,-1.43,0.13
Cc1cc(Cl)ccc1OCc1cc(=O)n2nc(-c3ccco3)sc2n1,1.45,13.1*
NNC(=O)c1[nH]ncc1-c1ccc(Cl)cc1Cl,-2.18,.
Cn1cnc(S(=O)(=O)N(Cc2ccccc2)Cc2cccs2)c1,0.29,.
CCCN1CCN(C(=O)C(C)n2nc(C)c3sc4ccccc4c3c2=O)CC1 (configuration not stated),-0.58,1.62
Cc1cc(C)c2c(CC(=O)N(Cc3ccc(Cl)cc3)C3CCS(=O)(=O)C3)coc2c1 (configuration not stated),-2.95,0.72
C=C(C)Cn1c(-c2ccco2)nc2ccccc21,-0.06,-0.63
CC1(C)Cc2c(c(N3CCOCC3)nc3sc(C(N)=O)c(N)c23)CO1,1.91,2.35
CCCCn1c(C2CC(=O)N(c3ccccc3)C2)nc2ccccc21 (configuration not stated),-1.24,1.58
NC(=O)CSc1nc(-c2ccccc2)nc2c1Cc1cc(Cl)ccc1O2,-1.13,-0.05
N#Cc1nc(/C=C/c2cccs2)oc1N1CCOCC1,-2.51,0.23

# (further entries)
SMILES,CDC25B CDK2 inh,HIV TAR-Tat
C=CCn1c2ccccc2c2nnc(SCC(=O)Nc3nc4c(s3)CCCC4)nc21,-1.53,.
COc1ccc(OC)c(Nc2ncc3c(n2)CCN(Cc2sccc2C)C3)c1,.,1.74
Cc1ccc(C)c(CNS(=O)(=O)c2ccc3c(c2)NC(=O)CC(C)S3)c1 (configuration not stated),.,0.44
Cc1cc(-c2ccc(C(C)C)c(S(=O)(=O)Nc3ccc(F)c(F)c3)c2)on1,.,1.09
CC1CCc2c(sc3nc(CCC(=O)NC4CCCC4)[nH]c(=O)c23)C1 (configuration not stated),.,0.58
O=C(NCc1cccs1)C(=O)NCC1CCCO1 (configuration not stated),-1.5,1.1
Brc1cccc(-c2nnc(CN3CCc4ccccc4C3)o2)c1,-0.55,0.44
Cc1cccc(NC(=O)C2CCN(c3ncnc4onc(C)c34)CC2)n1,.,1.4
NC(=O)c1nc(-c2ccc(F)c(F)c2)nc2c1[nH]c(=O)n2-c1ccc(F)cc1,.,1.81
O=C(Nc1ccc(F)cc1F)C1CCN(c2nnc(-n3cccc3)s2)CC1,.,1.36
COc1ccc2c(c1)CC(NC(=O)NCCCN1CCN(C3CCCCC3)CC1)CO2 (configuration not stated),.,0.39
